SRC2 inh: inhibits human steroid receptor coactivator 2; inhibition, % at 9 µM; HEK293 GAL4-SRC2 luciferase reporter, luminescence; actives 0.17% (n = 370,000); AID 651957;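 active = inhibition above the mean inhibition of all tested compounds plus 3 SD, set per campaign, cut at about 52% in these data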;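 note: 0% = DMSO treated cells and 100% = cells given Gossypol at 36 µM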
TWEAK-Fn14 inh: inhibitors of TWEAK-Fn14 interaction signaling; TWEAK-stimulated Fn14 reporter cells, luciferase luminescence, 8 h; inhibition, % at 10 µM; actives 2% (n = 360,000); AID 1159606; in the data active = inhibition above about 50%
COUP-TFII inh: blocks human COUP-TFII nuclear receptor | HEK293T NGFI-A luciferase reporter, luminescence | actives 0.7% (n = 370,000) | P24468 | inhibition, % at 8.6 µM;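 active = inhibition above a per-plate cutoff, mean inhibition of test wells between control levels plus 3 SD, cut at about 38% in these data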;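 note: cells cotransfected with COUP-TFII expression vector driving the NGFI-A reporter; 0% = median of COUP-TF2 test wells and 100% = reporter-only cells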
LRH-1 inv ag: inverse agonists of human LRH-1 (NR5A2); O00482; HEK293T StAR-luciferase reporter, LRH-1 transfected, 24 h; inhibition, % at 3.6 µM; actives 0.13% (n = 360,000); AID 602396;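 active = inhibition above the mean inhibition of all tested compounds plus 3 SD, cut at about 73% in these data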;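 note: 0% = DMSO wells and 100% = reporter-only cells lacking LRH-1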
NCOA1 inh: inhibits human SRC1 coactivator; Q15788; HEK293 GAL4-SRC1 luciferase reporter, luminescence; actives 0.12% (n = 360,000); inhibition, % at 3.6 µM;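 active = inhibition above the campaign mean plus 3 SD, with each screening campaign given its own cutoff, cut at about 60% in these data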;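 note: 0% = DMSO treated cells and 100% = gossypol at 36 µM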
EBV LMP1 NFkB: inhibitors of Epstein-Barr LMP1-induced NF-kappaB reporter. actives 0.69% (n = 350,000). AID 504558. LMP1-induced NF-kappaB luciferase reporter cells, luminescence. inhibition, % at 12.5 µM; in the data active = inhibition above about 41%; inconclusive = no clear call, values can overlap the other calls;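 note: 0% = neutral control wells and 100% = reference inhibitor control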
TROY NFkB inh: blocks TROY-dependent signaling in reporter cells. actives 0.98% (n = 360,000). Q293 LMP1-TROYcd NF-kB luciferase reporter, 4 h. AID 1347056. inhibition, % at 10 µM;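 active = compounds whose plate-normalised and pattern-corrected inhibition of the luciferase reporter signal at the single screening dose is 50% or more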
SRC3 inh: inhibitors of human steroid receptor coactivator 3 (SRC3). HEK293 GAL4-SRC3 luciferase reporter, luminescence. inhibition, % at 3.6 µM. actives 0.17% (n = 360,000). AID 588352;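 active = inhibition above a per-campaign cutoff, the mean of all compounds plus 3 SD, cut at about 60% in these data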;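 note: 0% = DMSO-treated cells and 100% = gossypol-treated cells at 36 µM; higher means less SRC3-driven luciferase light from the GAL4 reporter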
C8 TRAIL sens: sensitizes caspase-8 expressing cells to TRAIL; NB7+C8 cells + TRAIL, ATPlite viability luminescence; inhibition (viability loss, TRAIL sensitization), % at 10 µM; actives 1% (n = 360,000); AID 624354;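 active = compounds causing at least 50% loss of cell viability in the single-dose screen, relative to plate controls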
The depositor's hits bear a star; ? = inconclusive; / = not tested or not shown; & = joins results of further samples.

entry | Structure | SRC2 inh | TWEAK-Fn14 inh | COUP-TFII inh | LRH-1 inv ag | NCOA1 inh
1 | CCOC(=O)CCS(=O)(=O)c1nc(-c2ccccc2)cc(C(F)(F)F)n1 | / | 84* | / | -63 | -19
2 | CC(C)N(CCC(=O)c1ccc2ccccc2c1)Cc1ccccc1 | 2 | -23 | 2 | 16 | -5
3 | COc1cc(/C=C/C(=O)CC(=O)/C=C/c2ccc(O)c(OC)c2)ccc1O | 11 | 29 | 5 | -32 | -46
4 | CC(NC(=O)/C(C#N)=C/c1ccc([N+](=O)[O-])o1)c1ccccc1 (stereo not drawn) | -8 | 5 | -5 | 4 | -2
5 | CCCCCCSc1cc(-c2nc3cnccn3c2NCCCC)ccc1OC | / | 3 | / | 10 | 6
6 | O=[N+]([O-])c1cnc(Sc2ccncn2)s1 | -31 | -25 | -8 | -37 | -28
7 | CC(=O)Nc1ccc2c(=O)n(-c3ccccc3)sc2c1 | -20 | -10 | 3 | 4 | -39
8 | CC(=O)c1sc2nc(-c3ccc(C)cc3)c3c(c2c1N)CCCC3 | 9 | 13 | 3 | 16 | -14
9 | O=C(CN1C(=O)NC2(CCCCC2)C1=O)Oc1ccc2c(C(F)(F)F)cc(=O)oc2c1 | 41 | -9 | 16 | 7 | -1
10 | O=C1NC(=O)C2C1C(c1ccc([N+](=O)[O-])cc1)=NN2Cc1ccccc1 (stereo not drawn) | -1 | -27 | -16 | 28 | -6
11 | Cn1c2ccccc2c(=O)c2ccc(C#Cc3ccc(N)cc3)cc21 | -31 | 16 | 6 | -2 | -32
12 | N#CC(=Cc1ccc(O)cc1)C(N)=C(C#N)C#N | -20 | 23 | -4 | 9 | -20

entry | EBV LMP1 NFkB | TROY NFkB inh | SRC3 inh | C8 TRAIL sens
1 | -24 | 46 | -26 | -7
2 | 7 | -9 | -2 | -11
3 | -24 | 5 | -14 | 32
4 | -6 | 5 | -14 | 21
5 | 1 | -15 | 16 | 19
6 | 38 | -20 | -27 | 18
7 | 8 | -59 | -12 | -12
8 | 1 | 24 | -1 | -38
9 | 6 | 11 | 4 | 5
10 | -17 | -34 | 5 | -9
11 | 2 | 50* | -14 | 32
12 | -10 | -14 | -12 | 0

Continuation.
entry | Structure | SRC2 inh | TWEAK-Fn14 inh | COUP-TFII inh | LRH-1 inv ag | NCOA1 inh
13 | CC(=O)Oc1ccc(N2C(=O)c3cccc4c([N+](=O)[O-])ccc(c34)C2=O)cc1 | -5 | -99 | 3 | 12 | -5
14 | O=C1C=CC(=O)N1CCNc1ncc(C(F)(F)F)cc1Cl | 19 | 11 | 8 | 20 | 5
15 | CCN(CC)c1ccc(C=NNc2ccc([N+](=O)[O-])cn2)cc1 | -15 | -45 | -17 | -21 | -54
16 | Cc1cc2ncc(-c3ccccc3)nc2cc1C | -32 | 40 | -37 | -157 | -115
17 | O=C(Nc1ccc(F)cc1)c1nc(S(=O)(=O)Cc2ccccc2)ncc1Cl | 48 | 79* | -24 | -12 | -64
18 | N#C/C(=C\c1ccc(O)c(O)c1)C(=O)NCc1ccccc1 | -17 | -18 | -8 | 5 | -13
19 | C/C(=N\Nc1ccc([N+](=O)[O-])cc1)c1ccc2c(c1)OCO2 | -3 | -25 | 11 | -6 | -46
20 | O=C1c2cccc3c(N4CCCCC4)ccc(c23)C(=O)N1c1cccc(O)c1 | -46 | -12 | -14 | -9 | -168
21 | Cc1ccc(S(=O)(=O)N[C@H](C(=O)Oc2ccc3c(C(F)(F)F)cc(=O)oc3c2)c2ccccc2)cc1 | / | -11 | / | 14 | 2
22 | COc1ccc(-c2nc3cnccn3c2NC2CCCCC2)cc1-c1cccc(Cl)c1 | 4 | 8&-30 | -7 | 2&6 | -3
23 | O=C1N/C(=N\S(=O)(=O)Cc2ccccc2)S/C1=C/c1cc([N+](=O)[O-])ccc1O | 23 | 10 | 13 | -6 | 4
24 | O=C(C#Cc1ccccc1)c1ccco1 | -24 | 94* | -9 | 19 | 18

entry | EBV LMP1 NFkB | TROY NFkB inh | SRC3 inh | C8 TRAIL sens
13 | 17 | 55* | -7 | 19
14 | 24 | 8 | 35 | -5
15 | -68 | -45 | -90 | 7
16 | -12 | -19 | -131 | 27
17 | -2 | 69* | -19 | 92*
18 | -1 | -28 | -29 | 26
19 | -39 | -26 | -51 | -4
20 | 5 | -32 | -39 | 6
21 | 12 | -1 | -3 | -8
22 | -3 | -21&-27 | -31 | 11&10
23 | -3 | 18 | 21 | -3
24 | 24 | 58* | 22 | 40

(more compounds)
entry | Structure | SRC2 inh | TWEAK-Fn14 inh | COUP-TFII inh | LRH-1 inv ag | NCOA1 inh
25 | COc1cc2c3nnc(-c4ccc(F)cc4)c-3cn(Cc3cccc(C)c3)c2cc1OC | -14 | -373 | 14 | 8 | 11
26 | CCn1nc(-c2ccccc2)c2nc3ccccc3nc21 | -2 | 8 | -3 | 15 | 12
27 | O=C(c1ccccc1)c1ccccc1N1C(=O)C=CC1=O | -10 | -6 | -9 | -23 | -30
28 | COc1ccc(OC)c(C=Cc2ccc([N+](=O)[O-])cc2)c1 | 23 | -30 | -12 | 28 | -17
29 | CN([C@@H](Cc1ccc(OS(=O)(=O)c2cccc3cnccc23)cc1)C(=O)N1CCN(c2ccccc2)CC1)S(=O)(=O)c1cccc2cnccc12 | / | 36 | / | -18 | 29
30 | NNC(=O)c1oc2nc(-c3ccc(Cl)cc3)cc(-c3ccccc3)c2c1N | 27 | -6 | 11 | -2 | 8
31 | Cc1ccc(C(=O)O)cc1N1C(=O)c2cccc3c([N+](=O)[O-])ccc(c23)C1=O | 4 | 13 | 2 | 11 | 3
32 | C=CCn1c(Sc2ncc([N+](=O)[O-])s2)n[nH]c1=O | -30 | 0 | 11 | -23 | -6
33 | C(=N\C(/N=C/c1ccco1)c1ccco1)/c1ccco1 | -11 | 3 | -13 | -8 | -8
34 | N#Cc1ccc(-c2ccco2)nc1SCC(=O)c1ccc(Cl)cc1 | -20 | 14 | 14 | -37 | -6

entry | EBV LMP1 NFkB | TROY NFkB inh | SRC3 inh | C8 TRAIL sens
25 | -58 | -36 | -1 | 59*
26 | 2 | -7 | -11 | -11
27 | 35 | -1 | 12 | 3
28 | 4 | -35 | -45 | 10
29 | 9 | 11 | 33 | 11
30 | 9 | 10 | 6 | 10
31 | -6 | -20 | -4 | 17
32 | ? | 1 | -15 | -3
33 | 1 | -9 | -9 | -11
34 | 1 | -27 | 5 | 23

Rewritten in transposed form: 2 of the compounds above
28	COc1ccc(OC)c(C=Cc2ccc([N+](=O)[O-])cc2)c1
32	C=CCn1c(Sc2ncc([N+](=O)[O-])s2)n[nH]c1=O
compound no. | 28 | 32
SRC2 inh | 23 | -30
TWEAK-Fn14 inh | -30 | 0
COUP-TFII inh | -12 | 11
LRH-1 inv ag | 28 | -23
NCOA1 inh | -17 | -6
EBV LMP1 NFkB | 4 | ?
TROY NFkB inh | -35 | 1
SRC3 inh | -45 | -15
C8 TRAIL sens | 10 | -3

12 structures from above, ordered by number of heavy atoms, ascending.
entry | Structure | SRC2 inh | TWEAK-Fn14 inh | COUP-TFII inh | LRH-1 inv ag | NCOA1 inh
24 | O=C(C#Cc1ccccc1)c1ccco1 | -24 | 94* | -9 | 19 | 18
32 | C=CCn1c(Sc2ncc([N+](=O)[O-])s2)n[nH]c1=O | -30 | 0 | 11 | -23 | -6
33 | C(=N\C(/N=C/c1ccco1)c1ccco1)/c1ccco1 | -11 | 3 | -13 | -8 | -8
26 | CCn1nc(-c2ccccc2)c2nc3ccccc3nc21 | -2 | 8 | -3 | 15 | 12
18 | N#C/C(=C\c1ccc(O)c(O)c1)C(=O)NCc1ccccc1 | -17 | -18 | -8 | 5 | -13
34 | N#Cc1ccc(-c2ccco2)nc1SCC(=O)c1ccc(Cl)cc1 | -20 | 14 | 14 | -37 | -6
30 | NNC(=O)c1oc2nc(-c3ccc(Cl)cc3)cc(-c3ccccc3)c2c1N | 27 | -6 | 11 | -2 | 8
31 | Cc1ccc(C(=O)O)cc1N1C(=O)c2cccc3c([N+](=O)[O-])ccc(c23)C1=O | 4 | 13 | 2 | 11 | 3
22 | COc1ccc(-c2nc3cnccn3c2NC2CCCCC2)cc1-c1cccc(Cl)c1 | 4 | 8&-30 | -7 | 2&6 | -3
25 | COc1cc2c3nnc(-c4ccc(F)cc4)c-3cn(Cc3cccc(C)c3)c2cc1OC | -14 | -373 | 14 | 8 | 11
21 | Cc1ccc(S(=O)(=O)N[C@H](C(=O)Oc2ccc3c(C(F)(F)F)cc(=O)oc3c2)c2ccccc2)cc1 | / | -11 | / | 14 | 2
29 | CN([C@@H](Cc1ccc(OS(=O)(=O)c2cccc3cnccc23)cc1)C(=O)N1CCN(c2ccccc2)CC1)S(=O)(=O)c1cccc2cnccc12 | / | 36 | / | -18 | 29

entry | EBV LMP1 NFkB | TROY NFkB inh | SRC3 inh | C8 TRAIL sens
24 | 24 | 58* | 22 | 40
32 | ? | 1 | -15 | -3
33 | 1 | -9 | -9 | -11
26 | 2 | -7 | -11 | -11
18 | -1 | -28 | -29 | 26
34 | 1 | -27 | 5 | 23
30 | 9 | 10 | 6 | 10
31 | -6 | -20 | -4 | 17
22 | -3 | -21&-27 | -31 | 11&10
25 | -58 | -36 | -1 | 59*
21 | 12 | -1 | -3 | -8
29 | 9 | 11 | 33 | 11

Bioassay records deposited in PubChem BioAssay by several laboratories.

An excerpt, so the mix of outcomes need not match the whole.
